# CBX7 inh – CBX7 inhibition, primary AlphaScreen | O95931 | AlphaScreen His6-CBX7 / biotin-H3K27me3 peptide binding; active compounds read low | normalised signal (fraction of DMSO) (concentration not given with the values) | 1.1% of 66,000 active | AID 1224903; in the data active means normalised signal below about 0.5;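 further: 100 nL library stock added to about 20 µL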
# Target sequence (O95931 whole entry, looked up): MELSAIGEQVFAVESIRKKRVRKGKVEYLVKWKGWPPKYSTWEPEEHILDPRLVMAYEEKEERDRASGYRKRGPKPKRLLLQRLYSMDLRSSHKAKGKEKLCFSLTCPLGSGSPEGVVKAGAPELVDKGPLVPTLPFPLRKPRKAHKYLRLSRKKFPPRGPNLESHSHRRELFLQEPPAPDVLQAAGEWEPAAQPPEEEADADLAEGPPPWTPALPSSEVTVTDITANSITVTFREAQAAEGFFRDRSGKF
# CBX7 inh z-score – also measured in CBX7 inh; calls as there; z-score; measured here: z-score of CBX7 signal; some inactives read as strong as hits; reference of the scale not given here;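 same signal on another scale; lower means less binding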
# * = called active by the depositor; & = joins results of further samples. A portion of the library; rates above refer to the full screens.
# The first two records (preview)
SMILES,CBX7 inh,CBX7 inh z-score
CCOc1ccc(CN2C(=O)c3ccccc3C2C(=O)NCCc2ccc(OC)c(OC)c2)cc1 (configuration not stated),0.93,-0.75
CC1CCN(c2nc3ccc(C(=O)NC(C)c4ccc5c(c4)OCCO5)cc3s2)CC1 (configuration not stated),0.83,-1.6

# Main list, previewed entries included:
SMILES,CBX7 inh,CBX7 inh z-score
CCOc1ccc(CN2C(=O)c3ccccc3C2C(=O)NCCc2ccc(OC)c(OC)c2)cc1 (configuration not stated),0.93,-0.75
CC1CCN(c2nc3ccc(C(=O)NC(C)c4ccc5c(c4)OCCO5)cc3s2)CC1 (configuration not stated),0.83,-1.6
Cc1oc(-c2ccc(Cl)cc2)nc1CN1CCC(C(=O)O)CC1,1,1.5
CC1(C(=O)NC2CCCC2)CCC(=O)N1Cc1ccc2c(c1)OCO2 (configuration not stated),1.1,2.1
COc1ccc(C(=O)c2oc3ccccc3c2NC(=O)COc2cccc(C)c2C)cc1,0.89,-1.5
COc1cccc(NC(=O)CC2Nc3cc(C)c(C)cc3NC2=O)c1 (configuration not stated),1.1,2.6
COc1ccc(-c2csc3ncnc(Oc4cccc(C(F)(F)F)c4)c23)cc1,1.2,0.47
O=[N+]([O-])c1cccc(C2=NN(c3nc(-c4ccc(Br)cc4)cs3)C(c3ccc(F)cc3)C2)c1 (configuration not stated),0.71,-4.5
C=CCN(c1ccccc1)S(=O)(=O)c1ccc2[nH]cc(C(=O)NCCOC)c(=O)c2c1,1.1,1.5
CCCCSCCCNC(=O)C1CCN(Cc2nc(-c3ccc(OC)c(OC)c3)oc2C)CC1,1.2,2.2
Cc1[nH]c2ccccc2c1/C=C/c1nc2ccccc2c(=O)n1Cc1ccccc1,1.1,2.4
Cc1ccc(OCC(O)CN2CCN(c3ccccc3)CC2)c(C)c1 (configuration not stated),0.99,-0.14
CNC(=O)c1ccc2c(c1)NC(=O)c1ccccc1S2,1.2,1.4
COc1ccc(-c2nc(CSCC(=O)NCCCN3CCCC3=O)c(C)o2)cc1OC,1.2,4
Clc1ccc2c(Nc3cnc4ccccc4c3)c3c(nc2c1)CCCC3,1,0.54
O=C(Nc1ccc(S(=O)(=O)Nc2cnc3ccccc3n2)cc1)c1ccc(F)cc1,1,0.21
O=C(Nc1ccc(-c2nc3ccccc3[nH]2)cc1)c1cccc(Cl)c1,1.2,1.7
CCOc1ccc(NC(=O)CSc2nc3nc(C)c(Cc4cccc(C)c4)c(C)n3n2)cc1,1,0.074
Clc1ccccc1OCc1nc(-c2cccs2)no1,1.3,13
CCOc1ccc(CCNC(=O)CSCc2nc(-c3cccc(C)c3)oc2C)cc1OCC,0.87,-2.4
Cc1oc(-c2ccc(Cl)cc2)nc1CSCC(=O)NCCN1CCOCC1,1,1.1
O=C(Nc1c2c(nn1-c1ccc(Cl)cc1)CS(=O)(=O)C2)c1cccs1,0.93,-0.43
Cc1onc(-c2c(Cl)cccc2Cl)c1C(=O)NCCC(C)C,1.1,3.6
CN(CC(O)COCC1COc2ccccc2O1)C1CCCCC1 (configuration not stated),1.1,2
CCc1ccc(-c2csc(NC(=O)CN3C(=O)CCC3=O)n2)cc1,1.1,1
COc1ccc(-c2nc(CSCC(=O)NCc3ccccc3)c(C)o2)cc1OC,1.1,0.81
O=C(COc1ccc(Cl)cc1)Nc1c2c(nn1-c1ccc(Oc3ccccc3)cc1)CSC2,1.2,0.24
Cc1cc(N2CCC(C)CC2)nc2ccc(NC(=O)CCC(=O)N3CCC(C(N)=O)CC3)cc12,1,1.6
COc1ccc(-c2nc(C#N)c(N3CCCCC3)o2)cc1,0.85,-2.1
CC1CCN(S(=O)(=O)c2ccc3c(c2)N(CC(=O)NC(C)C)C(=O)CO3)CC1,0.97,-0.79
CC1=Nc2cc(C(=O)NC3CCCC3)ccc2Sc2ccc(Cl)cc21,1,0.32
Cc1ccc(-c2[nH]c(-c3ccccc3)nc2SCC(=O)Nc2ccc3c(c2)OCO3)cc1,0.78,-10
CCOC(=O)c1cnc2c(OC)cccc2c1NCC1CCCN1CC (configuration not stated),0.96,-0.042
COc1ccc(C(=O)Nc2ccc3nc(N4CCN(C)CC4)cc(C)c3c2)c(OC)c1,1,0.86
Cc1ccc2nc(NC(=O)c3ccc(S(=O)(=O)N(C)C)cc3)sc2c1,1.1,1.5
COc1ccc(C(=O)NCc2nnc(SCC(=O)N3CCC(C)CC3)o2)cc1OC,1,1.1
Cc1ccc2c(c1)NC(=O)C(CC(=O)NCCCN1CCOCC1)O2 (configuration not stated),1,0.022
CCCc1cc(C(=O)Nc2ccc(F)c(Cl)c2)no1,1.2,6.1
Cc1cccc(-n2c(-c3ccccc3)nc3c(cnn3-c3ccccc3)c2=O)c1,0.96,-1.5
Cc1cc(C(=O)Nc2ccccc2C#N)n(-c2ccccc2)n1,1.1,1.6
Cc1ccc2nc(-c3ccsc3)c(Nc3ccc(C(C)C)cc3)n2c1,1.1,1.1
CCCOc1ccc(C2C(=O)N(C3CCCCC3)CC(=O)N2Cc2ccc(C)cc2)cc1OC (configuration not stated),0.94,-0.83
Cc1cccc(CN2C(=O)c3ccccc3S(=O)(=O)c3ccc(C(=O)NC(C)C)cc32)c1,1,0.41
CCN(CC)CCCNC(=O)c1cc2c(s1)CSC2,1.1,0.62
O=C(NCc1ccccc1Cl)c1nc2c(nnn2CC2CCCO2)c(=O)[nH]1 (configuration not stated),0.94,-1.4

# Complete entries as entered above. Screens in order: CBX7 inh, CBX7 inh z-score
# Entry for `COc1ccc(C(=O)Nc2ccc3nc(N4CCN(C)CC4)cc(C)c3c2)c(OC)c1` = 1, 0.86
# Entry for `Cc1cccc(-n2c(-c3ccccc3)nc3c(cnn3-c3ccccc3)c2=O)c1` = 0.96, -1.5
# Entry for `Cc1ccc2nc(NC(=O)c3ccc(S(=O)(=O)N(C)C)cc3)sc2c1` = 1.1, 1.5
# Entry for `Cc1ccc(-c2[nH]c(-c3ccccc3)nc2SCC(=O)Nc2ccc3c(c2)OCO3)cc1` = 0.78, -10

# (further entries)
SMILES,CBX7 inh,CBX7 inh z-score
FC(F)(F)C(F)(F)c1nnc2ccc(Cl)nn12,1,0.86
Cc1nc2ncccn2c1-c1csc(Nc2ccccc2Cl)n1,0.69&0.78,-3.6&-0.24
Cc1ccc(-c2cc(C(F)F)n3ncc(C(=O)NC(C)c4ccccc4)c3n2)cc1 (configuration not stated),1,0.57
COc1cccc(Nc2cc(C)nc3c(C)cccc23)c1,1,0.17
Cc1nc2ncnn2c(C)c1CCC(=O)N1CCOCC1,1.1,2.7
COCC(C)NC(=O)C1CC(c2ccc(F)cc2)=NO1 (configuration not stated),1,1.1
CCOc1ccc(C(=O)Nc2ccc(-c3nc4ccccc4[nH]3)cc2)cc1Cl,1,0.17
Cc1ccc(CCNC(=O)c2ccc3nc(N4CCC(C)CC4)sc3c2)cc1,0.95,-1
CCc1ccc(NC(=O)c2sc3ncn(CC(=O)N4CCCCC4C)c(=O)c3c2C)cc1 (configuration not stated),0.98,-0.47
CCc1nc(-c2ccc(OC)c(C)c2)cc2cc(OC)c(OC)cc12,1,0.42
CCc1cccc(NC(=O)C2CCCN2S(=O)(=O)c2ccc3c(c2)CCC(=O)N3)c1 (configuration not stated),1,0.058
COc1ccc(Cc2nnc(SCC(=O)Nc3ccccc3F)o2)cc1,1.1,1.1
COc1ccc(N2CCN(c3ccc4nnc(CCC(=O)Nc5ccc(C)c(C)c5)n4n3)CC2)cc1,1,0.0077
CCc1cc(-c2onc(C)c2-c2ccc(OC)cc2)c(O)cc1OC,0.94,-0.1
COc1cccc(C2CC(=O)Nc3cc4c(cc32)OCCO4)c1 (configuration not stated),0.96,-0.33

# Of the compounds above, 4 have an aryl thioether with sulfur outside any ring.
SMILES,CBX7 inh,CBX7 inh z-score
CCOc1ccc(NC(=O)CSc2nc3nc(C)c(Cc4cccc(C)c4)c(C)n3n2)cc1,1,0.074
Cc1ccc(-c2[nH]c(-c3ccccc3)nc2SCC(=O)Nc2ccc3c(c2)OCO3)cc1,0.78,-10
COc1ccc(C(=O)NCc2nnc(SCC(=O)N3CCC(C)CC3)o2)cc1OC,1,1.1
COc1ccc(Cc2nnc(SCC(=O)Nc3ccccc3F)o2)cc1,1.1,1.1

# Other compounds follow:
SMILES,CBX7 inh,CBX7 inh z-score
NC(=O)CSc1oc(-c2ccccc2)nc1S(=O)(=O)c1ccc(Br)cc1,0.98,-0.55
Cc1cccc(-c2nc(C(=O)NCc3ccc4c(c3)OCO4)c(C)o2)c1,0.74,-3.7
CCOCCCNC(=O)C(c1ccccc1)N1CCOCC1 (configuration not stated),1,0.51
O=C1CN(S(=O)(=O)c2ccc(F)cc2)CC(=O)N1CCc1ccccc1,1.1,2.9
Cc1ccc(NC2CC(=O)N(c3ccc(C)cc3)C2=O)cc1 (configuration not stated),1.1,0.92
COc1ccccc1N1CCN(c2ncnc3ccccc23)CC1,1,0.71
CCOC(=O)c1cnc2c(ccc3ccccc32)c1NCCOC,1.6,13
COc1cc2nc(N3CCNCC3)nc(N)c2cc1OC,0.93,-0.75
COc1ccccc1-c1cc2nc(C)c(CCC(=O)NCc3cccc(Cl)c3)c(C)n2n1,1.1,2.1
CCN(CC)S(=O)(=O)c1ccc2c(c1)N(CC(=O)NCC(OC)OC)C(=O)CO2,1.1,2
COc1ccc(C2NCCc3cc(OC)c(OC)cc32)cc1OC (configuration not stated),0.96,-0.93
Cc1cc(Nc2ccc(C)c(Br)c2)n2ncnc2n1,1,0.79
CCCc1oc2cc(O)c(CC)cc2c(=O)c1-c1ccc2c(c1)OCO2,1.2,3.3
COc1cccc(NC(=O)Cn2cc(S(=O)(=O)c3ccc(F)cc3)c(=O)c3cc(C)ccc32)c1,0.96,-1.4
CC(C)NC(=O)c1cc(-c2cccs2)nc2ccccc12,1,1.3
CCCNC(=O)Cn1cnc2sc(C(=O)NCCN(C)C)c(C)c2c1=O,1,-0.0012
Cc1onc(-c2ccccc2Cl)c1C(=O)Nc1nc2ccc(S(C)(=O)=O)cc2s1,1,0.62
Cc1ccc(NC(=O)CN(c2ccc(C)cc2)S(=O)(=O)c2c(C)nn(C)c2C)cc1,1.1,0.94
Cc1cc(N2CCCCC2)nc2ccc(NC(=O)Cc3ccc(Cl)cc3)cc12,0.78,-5.8
COc1ccc(-c2noc(-c3ccccc3Br)n2)cc1,1.2,6.6
O=C(Nc1c2c(nn1-c1ccc(F)cc1)CS(=O)(=O)C2)c1ccc(Br)cc1,0.95,-0.54
CNC(=O)c1sc2nc(-c3ccc(OC)cc3)cn2c1C,0.93,-1.3
COc1ccccc1CNc1cc(C)nc2nc(C)nn12,1.1,1.6
COCCc1nnc(NC(=O)Nc2ccc(OC)cc2)s1,0.97,-0.38
CN(C)CCN(Cc1ccccc1)C(=O)c1cc2c(s1)-c1ccccc1OC2,1.2,4.7
CCc1cccc(NC(=O)CCCN2C(=O)c3cccnc3C2=O)c1,1.1,0.18
Cc1ccc(CNC(=O)C2CCN(Cc3nc(-c4cccc(Br)c4)oc3C)CC2)cc1,1,0.15
O=C1CCc2cc(S(=O)(=O)NC(Cc3ccccc3)C(=O)N3CCCCCC3)ccc2N1 (configuration not stated),1,0.13
CCOC(=O)c1cnc2ccccc2c1Nc1cccc(C(F)(F)F)c1,1.1,1.3
CN(C(=O)Cn1c(SCc2ccc(F)cc2)nc2ccncc21)c1ccccc1,0.96,-1.8
CS(=O)(=O)N(CC(=O)NCc1cccnc1)c1ccccc1Cl,0.96,-0.17
O=C(CC1(O)C(=O)N(CCCc2ccccc2)c2ccccc21)c1ccccc1 (configuration not stated),0.68,-9.3
CN1CCN(CCCNS(=O)(=O)c2ccc3c(c2)CCN3C(=O)C2CCC2)CC1,0.98,-0.63
CN(C)c1ccc(-c2ncnn2-c2ccccc2)cc1,1,0.15
Cc1cccc(-c2noc(-c3ccc(C)c(C)c3)n2)c1,1.2,2.8
CCCN1Cc2cccc(C(=O)Nc3cccc(Cl)c3C)c2C1=O,1.1,0.83
COc1ccc(Br)cc1CN1C(=O)CCC1(C)C(=O)NC1CCCC1 (configuration not stated),1,-0.00085
CCSc1oc(-c2cccs2)nc1S(=O)(=O)c1ccc(F)cc1,0.97,-0.045
CCNC(=O)CC1C(=O)N(c2ccc(F)cc2)C(=O)N1CCC(C)C (configuration not stated),1,0.075
Cc1ccc(CNC(=O)c2ccc3c(c2)N(Cc2ccc(F)cc2)C(=O)c2ccccc2S3=O)cc1 (configuration not stated),0.52,-13
COc1ccc(CC(=O)N2CC(=O)Nc3ccc(Cl)cc3C2c2ccc(F)cc2)cc1 (configuration not stated),1.2,1.9
CCOC(=O)c1sc2nc(C)nc(N(C)Cc3ccccc3)c2c1C,1.1,5.2
CCN1CCN(c2cc(C)c3cc(NC(=O)c4ccc(OC)c(OC)c4)ccc3n2)CC1,0.92,-0.57
CC1CCN(c2nc3ccc(C(=O)NCCCN4CCCCC4)cc3s2)CC1,1.1,1.5
c1cnc2c(SCC3CCOCO3)cccc2c1 (configuration not stated),1.1,1.9
CCCCCCNC(=O)c1c[nH]c2ccc(S(=O)(=O)N(CC)c3cccc(C)c3)cc2c1=O,1.1,1.3
Cc1ccc(NC(=O)Cn2cc(S(=O)(=O)c3ccccc3)c(=O)c3cc(Cl)ccc32)cc1,0.77,-3.3
COc1ccc(CCn2c(=O)c3cccnc3n(CC(=O)Nc3cccc(Cl)c3)c2=O)cc1OC,0.98,-0.55
O=C(c1nn2c(C(F)(F)F)cc(-c3ccc(Cl)cc3)nc2c1Cl)N1CCCC1,0.84,-2
CC(C)c1ccc(NC(=O)C2CCCN(S(=O)(=O)c3cnc[nH]3)C2)cc1 (configuration not stated),1,0.82
Cc1ccc2c(c1)NC(=O)C(CC(=O)NC(C)CCc1ccccc1)O2 (configuration not stated),1,-0.19

# Source: PubChem
